# KCNQ2 enhance = potentiators of rat KCNQ2 potassium channel; B-score at 10 µM; AID 2239, 2010; hit rate 0.54% among 310,000; CHO-K1 KCNQ2, FluxOR thallium flux fluorescence; stronger effect = higher value; Potassium voltage-gated channel subfamily KQT member 2 (Rattus norvegicus), O88943;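 active = fluorescence ratio B-score at least 3 SD of library B-scores, with initial fluorescence B-score within 3 SD, cut at about 5.3 in these data; same plate scores as AID 2156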;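 note: B-score of peak minus minimum over baseline fluorescence ratio after K+ and Tl+ stimulus; positive B-score means potentiation of KCNQ2 with more thallium influx and brighter signal; only the inactives scoring about 0 or higher are listed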
# Target sequence (O88943 whole entry, looked up): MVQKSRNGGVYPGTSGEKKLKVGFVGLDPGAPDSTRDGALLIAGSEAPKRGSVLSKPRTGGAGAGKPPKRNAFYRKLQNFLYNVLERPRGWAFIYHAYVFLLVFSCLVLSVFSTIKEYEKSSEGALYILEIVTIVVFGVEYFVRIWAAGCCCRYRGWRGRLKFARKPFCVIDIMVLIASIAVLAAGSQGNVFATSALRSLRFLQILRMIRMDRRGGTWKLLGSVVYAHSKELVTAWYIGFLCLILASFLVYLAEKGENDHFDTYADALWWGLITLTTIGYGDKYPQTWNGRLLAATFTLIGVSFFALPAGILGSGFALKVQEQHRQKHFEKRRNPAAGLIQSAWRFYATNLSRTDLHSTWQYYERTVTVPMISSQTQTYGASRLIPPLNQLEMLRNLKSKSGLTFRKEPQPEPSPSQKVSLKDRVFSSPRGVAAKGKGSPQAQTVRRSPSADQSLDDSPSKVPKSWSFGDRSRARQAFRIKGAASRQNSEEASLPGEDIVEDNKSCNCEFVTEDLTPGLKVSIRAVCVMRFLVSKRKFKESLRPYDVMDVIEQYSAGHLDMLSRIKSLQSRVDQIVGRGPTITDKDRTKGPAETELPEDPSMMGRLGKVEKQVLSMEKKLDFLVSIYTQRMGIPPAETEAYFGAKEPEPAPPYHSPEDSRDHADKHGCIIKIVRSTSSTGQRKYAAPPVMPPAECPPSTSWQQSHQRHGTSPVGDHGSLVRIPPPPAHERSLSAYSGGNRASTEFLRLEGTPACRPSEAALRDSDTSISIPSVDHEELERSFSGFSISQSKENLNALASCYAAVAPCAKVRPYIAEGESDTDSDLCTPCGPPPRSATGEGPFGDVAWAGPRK
# KCNQ2 enhance baseline = also measured in KCNQ2 enhance; calls as there; B-score; compound at 10 µM; measured here: initial fluorescence intensity artifact check;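 brightness before thallium and not channel activity; 0 = typical well and far values either way flag optical interference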
# The depositor's hits bear a star. Some of the compounds tested; the hit share may differ from the screen's.
# Every second line gives: KCNQ2 enhance | KCNQ2 enhance baseline
1) C=CCNC(=O)c1onc(CSc2ccc(F)cc2)c1C(=O)O
  0.68 | 0.32
2) COc1ccc(C(=O)C(C)Oc2cccc(NC(=O)c3cccc([N+](=O)[O-])c3)c2)cc1 (stereo not given)
  3.05 | -1.87
3) CCCCn1cnc2c(oc3nc4c(cc32)CCCC4)c1=O
  0.94 | -0.08
4) O=C(COC(=O)c1ccccc1F)Nc1cccnc1Cl
  0.07 | -1.45
5) CC1(C)CC(NC(=O)COc2ccc(Br)cc2Cl)CC(C)(C)N1
  1.33 | -0.1
6) COc1ccc(/C=C2\OC(=O)c3c(OC)cccc32)cc1OC
  0.68 | -0.77
7) CCOc1ccc(-c2nc(-c3cccnc3)no2)cc1OCC
  0.3 | -0.38
8) COc1ccc2nc(NC(=O)CSc3ccccc3)sc2c1
  0.09 | -0.89
9) Cc1nc2ccccc2n1-c1ccccc1
  0.9 | -0.47
10) O=C(CN1C(=O)CCC1=O)Nc1ccc(S(=O)(=O)N2CCOCC2)cc1
  0.45 | 0.63
11) Cn1nc(C(F)(F)F)c(C(=O)Nc2ccc(F)cc2F)c1Cl
  0.36 | 2.6
12) O=C(NC1CCCC1)c1ccc([N+](=O)[O-])s1
  1.63 | 0.1
13) COC(=O)Cc1ccc(NC(=S)Nc2ccc(N3CCOCC3)cc2)cc1
  0.15 | -0.24
14) COCCn1nnnc1CN(CCCN1CCOCC1)Cc1cc2c(C)ccc(C)c2[nH]c1=O
  1.08 | -4.4
15) O=c1ccc(-c2ccccc2)n[nH]1
  0.37 | 0.91
16) CCNC(=S)NN=C1c2ccccc2-c2ccccc21
  2.03 | -1.82
17) COc1cc(OC)cc(C(=O)NCC2CCCN(C(=O)c3csc(C)n3)C2)c1 (stereo not given)
  0.01 | -0.01
18) CC1Cc2ccccc2N1C(=O)CCN1C(=O)C2C3C=CC(C3)C2C1=O (stereo not given)
  0.21 | 0.1
19) CCCNS(=O)(=O)c1ccc(CCC(=O)NCC2CCCO2)cc1 (stereo not given)
  0.16 | -1.23
20) COc1ccc(S(=O)(=O)N(CC(=O)Nc2cccnc2)c2ccccc2OC)cc1
  0.58 | 1.2
21) CC(=O)Nc1ccc(S(=O)(=O)N2CCN(C(=O)CCC3CCCC3)CC2)cc1
  0.76 | -1.5
22) CC(C)n1c(Nc2ccccc2)nc2ccccc21
  0.75 | 1.46
23) CCOc1ccc(-n2nnc3c(=O)n(C/C=C/c4ccccc4)cnc32)cc1
  1.45 | 0.04
24) Cc1ccc(-n2c(C)cc(C(=O)OCC(=O)N(CC(C)C)C3CCS(=O)(=O)C3)c2C)cc1 (stereo not given)
  2.46 | -0.95
25) CCOc1ccc(Cn2c(SCCCCC#N)nc3c2c(=O)n(C)c(=O)n3C)cc1OCC
  0.87 | -2
26) CCOC(=O)c1nnn(-c2nonc2N)c1-c1ccccc1Cl
  0.78 | 1.44
27) CSc1nc(N(CCO)CCO)c2sc3nc(-c4ccco4)c4c(c3c2n1)CCC4
  0.88 | 2.19
28) O=C(CSc1nnc(CNC(=O)c2ccc(F)cc2)o1)Nc1ccc2c(c1)OCO2
  1.04 | -0.99
29) Cc1ccc(OCC(=O)NN2C(=O)c3ccccc3C2=O)cc1
  0.92 | -0.65
30) CC(=O)Nc1ccc(SCc2ncc(-c3ccccc3)o2)cc1
  1.05 | 0.66
31) COc1ccc(-c2nc(CS(=O)CC(=O)NC3CCCC3)c(C)o2)cc1OC (stereo not given)
  0.08 | -0.25
32) O=C1C=C(c2ccccc2)OC(=O)C1C(=O)c1ccccc1 (stereo not given)
  0.64 | 0.05
33) C[C@H](NC(=O)[C@@H]1Cc2ccccc2CN1)C(=O)NCC1CCCO1 (stereo not given in full)
  1.23 | -0.03
34) COCCn1c(SCC(=O)c2ccc(CNC(C)=O)o2)nc2ccccc2c1=O
  1.99 | -0.45
35) O=C(COc1ccc(-c2ccccc2)cc1)N1CCN(C(=O)c2cccs2)CC1
  0.03 | 1.39
36) CC(=O)C(Cc1ccc(Cl)nc1)(Cc1ccc(Cl)nc1)C(C)=O
  0.7 | 0.1
37) C/C=C(\C)C(=O)NCCN1C2=NC[C@H](Cc3ccccc3)N2C[C@H]1Cc1ccc(O)cc1
  0.1 | 0.15
38) O=C(Nc1ccc(Cl)cn1)C1CC1
  1.11 | 1.25
39) CCOc1cccc(-c2c(C(=O)N/N=C/c3sccc3C)nnn2-c2nonc2N)c1
  0.61 | -0.83
40) COc1cc2c(C(=O)NCc3ccc4c(c3)OCO4)cn(CC(C)C)c(=O)c2cc1OC
  0.52 | 1.57
41) CCNCc1cc([N+](=O)[O-])ccc1OCC
  1 | -0.02
42) Cc1ccc(CN2CN(S(=O)(=O)c3cccs3)c3nc4ccccc4nc32)cc1
  0.91 | 0.12
43) COc1ccc(S(=O)(=O)N2CCN(C)CC2)cn1
  0.33 | -0.86
44) Cc1cc(=O)oc2cc3c(cc12)OCCN3
  0.3 | 0.03
45) CC(=O)NCCNS(=O)(=O)c1ccc(C)c([N+](=O)[O-])c1
  1.45 | 0.19
46) Cc1cc(OC(=O)c2ccccc2)c([N+](=O)[O-])c(=O)[nH]1
  0.45 | -2.54
47) CC(C)OP(=O)(OC(C)C)C(C)NC(=O)Cc1ccccc1 (stereo not given)
  0.57 | -0.05
48) O=C(NC(=S)Nc1cc(Cl)ccc1O)c1cccc(Br)c1
  0.09 | 0
49) C=CCNc1nc2c(c(=O)[nH]c(=O)n2C)n1CCOc1ccccc1
  1.41 | -1.04
50) Cc1noc(C(=O)Nc2ccc(F)c(Cl)c2)c1Cl
  1.93 | -1.25
51) CCn1c(C)nc2cc(C(=O)NNC(=S)Nc3ccccc3Cl)ccc21
  0.59 | -0.49
52) O=C(O)CCn1cc(/C=C2/NC(=S)N(c3ccccc3)C2=O)c(-c2ccccc2)n1
  0.75 | 0.5
53) COc1ccc(-c2ccccc2)c2oc(-c3ccco3)cc(=O)c12
  0.06 | 1.3
54) Cc1cc(C(=O)Nc2ccon2)c(C)o1
  0.61 | 1.83
55) COc1ccc(NC(=O)C(Cc2cc(C)cc(C)c2)C(C)C(=O)O)cc1 (stereo not given)
  0.41 | 0.06
56) Brc1c(OCCOCCn2cncn2)ccc2ccccc12
  0.02 | 1.08
57) CCOC(=O)C1CCCN(C(=S)Nc2ccc(F)cc2)C1 (stereo not given)
  0.02 | 2.33
58) Cc1cccc(NC(=O)CCOc2ccccc2)c1C
  2.55 | 0.41
59) Cc1ccc(OCC(=O)N(Cc2ccc(N(C)C)cc2)C2CCS(=O)(=O)C2)cc1 (stereo not given)
  0.03 | -0.79
60) Cc1ccc(NC(=S)NN2CCN(C)CC2)c(C)c1
  0.16 | -0.71

# Other entries.
# Every second line gives: KCNQ2 enhance | KCNQ2 enhance baseline
61) COc1cccc(/C=N/NC(=O)COc2cccc3cccnc23)c1O
  0.8 | 0.23
62) Cc1cc(C)cc(OCC(=O)Nc2cccc(C(=O)O)c2)c1
  0.35 | -0.54
63) CC(C)C(C(=O)N1CCN(C(=O)OC(C)(C)C)CC1)n1cc(-c2cn([C@@H](C)C(=O)N3CCN(C(=O)OC(C)(C)C)CC3)nn2)nn1 (stereo not given in full)
  0.44 | -0.55
64) CSc1nnc(Cn2c(=O)sc3ccccc32)n1-c1cccc(Cl)c1
  2.77 | -2.49
65) CCN(CC)C(=O)CSc1nnnn1-c1ccc(F)c(Cl)c1
  0.17 | -0.83
66) Cc1cc(NC(=O)CSc2nc(C3CC3)nc3sc4c(c23)CCC(C)C4)no1 (stereo not given)
  0.15 | -0.01
67) COC(=O)c1c(NC(=O)CC2Sc3ccc(C(F)(F)F)cc3NC2=O)sc(C)c1C (stereo not given)
  1.05 | 0.01
68) Cc1c(C(=O)NCc2cccnc2)oc2ccc(S(=O)(=O)N3CCCCCC3)cc12
  1.7 | -0.04
69) CC(=O)N/C(=C/c1ccc([N+](=O)[O-])cc1)C(=O)O
  0.01 | 2.7
70) COc1ccc2nc(SCC(=O)Nc3ccc(S(=O)(=O)Nc4nccc(C)n4)cc3)[nH]c2c1
  0.92 | 0.09
71) CCOC(=O)CSc1ncc(-c2ccc([N+](=O)[O-])cc2)[nH]1
  2.1 | 5.24
72) Cc1ncc(CO)c2c1OC(C)(C)OC2
  0.35 | -0.03
73) COc1ccc(CCNC(=O)COC(=O)c2cc(OC)c(OC)cc2OC)cc1
  0.21 | 0.4
74) CCn1cc(CN2CCC(n3nccc3NC(=O)c3ccccc3OC)CC2)cn1
  0.44 | -0.17
75) COc1ccc(N2CCN(Cc3cc4c(cc3O)CCC4)CC2)cc1
  0.46 | -0.77
76) Cc1ccccc1NC(=O)Nc1ccccc1Br
  0.23 | -0.68
77) CC(C)CCn1c(=S)[nH]c2ncccc2c1=O
  4.58 | -0.22
78) CC(C)(C)c1cc(NC(=O)c2ccco2)no1
  2.93 | 0.47
79) CC(C)NC(=O)C1CCCN(S(C)(=O)=O)C1 (stereo not given)
  0.69 | -0.02
80) Cc1cc(C(=O)N2CCCC(C(=O)c3ccc4ccccc4c3)C2)nn1C (stereo not given)
  1.08 | -0.82
81) O=C(/C=C\Nc1ccc2c(c1)OCO2)c1cccs1
  0.67 | -1.81
82) CCN(c1ccc(NC(=O)COC(=O)c2cc3ccccc3oc2=O)cc1)C(C)C
  0.96 | 0.01
83) CC1CN(C(=O)C(C)Sc2nnnn2C)CC(C)O1 (stereo not given)
  1.16 | 0.08
84) O=C(COC(=O)c1ccccn1)NC1CCCCC1
  0.92 | -0.91
85) COc1ccc(NC(=O)CCNC(=O)c2ccccc2)cc1S(N)(=O)=O
  1.12 | -1.74
86) Cc1ccccc1N1CC(O)(c2ccccc2)[N+]2=C1SCC2 (stereo not given)
  0.13 | -1.62
87) COCC1CCCCN1C(=O)c1ccc(OC2CCN(CCc3ccccc3)CC2)cc1 (stereo not given)
  2.06 | -0.07
88) CCCCSc1nc2c(c(=O)[nH]c(=O)n2C)n1CCc1ccccc1
  0.31 | 0.9
89) Cc1noc(C)c1C(=O)OCC(=O)Nc1c(F)cccc1F
  1.11 | 0.57
90) COc1cccc(-n2nnc3c(=O)n(C/C=C/c4ccccc4)cnc32)c1
  1.05 | 2.38
91) O=C(CSc1nnc(COc2ccc(Cl)cc2)n1Cc1ccco1)c1ccccc1F
  0.25 | 0.3
92) CS(=O)(=O)c1ccc(Cl)c(NC(=O)Nc2ccccc2)c1
  1.31 | 0.01
93) CC(=O)c1cc(C(=O)c2ccccc2)sc1Nc1ccccc1
  0.03 | 1.76
94) CCOC(=O)c1cnc(Nc2ccccc2)nc1C(F)(F)F
  0.42 | 1.69
95) CCOC(=O)C1CCN(C(=O)c2ccc(Br)o2)CC1
  1.51 | -0.86
96) O=C1C(=O)N(C2CCS(=O)(=O)C2)C(c2cccc(O)c2)/C1=C(/O)c1ccc(Cl)cc1 (stereo not given)
  0.64 | 0.59
97) O=C(CN1C(=O)S/C(=C\c2ccccn2)C1=O)Nc1ccc(F)cc1
  0.31 | -0.7
98) N=c1oc2ccc3ccccc3c2cc1C(N)=S
  0.73 | -1.71
99) CCc1ccc(CC)c(S(=O)(=O)Nc2ccc(C(=O)O)c(O)c2)c1
  1.6 | -1.33
100) CCn1c(SCC(=O)Nc2ccc3c(c2)OCO3)nnc1C1CC1
  0.61 | -0.04
101) COc1cccc(C(=O)NCC2CCCN(C3CCCCC3)C2)c1OC (stereo not given)
  0.17 | -0.39
102) CC(=O)N/N=c1\sc2ccccc2n1C
  0.49 | 0.59
103) CC(C)c1ccc2oc(-c3cc(N)ccc3O)nc2c1
  0.03 | 0.67
104) O=C(Nc1nccs1)c1ccc(CSc2ccccc2)o1
  1.93 | -0.02
105) O=C(CSc1nnc2ccccn12)Nc1ccccc1C(=O)NC1CC1
  0.75 | -0.01
106) O=C(NNc1c(Cl)cccc1Cl)C1CCC1
  2.12 | 1.1
107) Cn1cc(CN2CCCC(CO)(Cc3ccccc3)C2)cn1 (stereo not given)
  0.81 | -0.2
108) O=C(NNC(=S)Nc1cccc(Cl)c1)c1ccccc1OC(F)F
  0.02 | -0.17
109) COc1ccc(/C(N)=N/OC(=O)c2cccs2)cc1OC
  1.04 | -1.48
110) CCn1c(=O)cc(OCC(=O)N2CCN(C(=O)c3ccco3)CC2)c2ccccc21
  0.7 | 3.37
111) CN(C)CCCNC(=O)/C(=C/c1ccc(-c2ccc([N+](=O)[O-])cc2)o1)NC(=O)c1ccccc1
  0.89 | 1.4
112) O=S(=O)(/N=C(/Nc1ccc(F)c(F)c1F)c1ccccc1)c1ccccc1
  0.79 | -0.51
113) CC(=O)Nc1cccc(NC(=O)CSc2ccc(-c3ccccn3)nn2)c1
  0.17 | -0.26
114) O=C(CN1C(=O)c2cccc3cccc1c23)NCc1ccncc1
  0.79 | -1.32
115) CCOc1ccc(S(=O)(=O)Nc2cccc(C(=O)NCC(C)(C)N3CCOCC3)c2)cc1
  0.2 | -2.26
116) CN(C)S(=O)(=O)c1ccc2nc(NC(=O)c3cccnc3)sc2c1
  1.52 | -0.4
117) CCOC(=O)C1CCCN1C(=O)c1ccc(OC)c(Br)c1 (stereo not given)
  1.87 | -1.16
118) O=C(COc1ccc(S(=O)(=O)N2CCOCC2)cc1)Nc1cccc([N+](=O)[O-])c1
  1.05 | -2.51
119) COc1ccc2[nH]c3c(NCCCOC(C)C)ncnc3c2c1
  4.01 | -1.02
120) CCCC[C@@H]1CNC(=S)N1CCCC
  1.17 | -0.47
